AID504770 – growth inhibition of E. coli YBA685, primary screen, V. cholerae RctB inhibitors | E. coli YBA685 rctB-dependent plasmid, OD600 growth, 3 h; stronger effect = lower value | 130,000 tested, 0.27% active | z-score (test concentration not listed);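 active = z-score under -2 on both plates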;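 note: wells of about 30 µL received 100 nL stock; score is relative to mean and SD of the test wells; the first replicate is given; strong numbers were not always called active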
Ba CapD inh – Bacillus anthracis CapD inhibitors, primary screen, biochemical, fluorescence intensity; AID 492967, 2010; 140,000 tested, 0.23% active; z-score (test concentration not listed); CapD gamma-glutamyltranspeptidase (Bacillus anthracis Ames Ancestor); purified CapD enzyme, fluorescence intensity read-out; stronger effect = lower value; some hits fall short of the stated cut;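 active = z-score under -4 in either of two replicates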;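 note: stock transfer was 100 nL into about 40 µL; score is relative to mean and spread of the plate; one replicate is shown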
The depositor's hits bear a star; · = not tested or not shown; & = joins results of further samples.

Compound	AID504770	Ba CapD inh
CCN1CCN(CCN=C2NS(=O)(=O)C(c3ccc(F)cc3)=C2C)CC1	0.15	-0.69
CN1CCN(C(=O)c2cc(Cl)c(=O)n(Cc3ccc(Cl)cc3)c2)CC1	·	0.29
N/C(=N\O)c1ncc(C(F)(F)F)cc1Cl	0.3	0.06
COc1ccc(-c2cc(C(=O)N(C)Cc3ccccc3)no2)cc1	-0.1	77
CC1(C)C(=O)N(c2cccc(Cl)c2)C(=O)C1(C)C	-1.1	0.47
O=C(Nc1ccc2c(c1)OCCO2)c1cccnc1Oc1ccccc1	-0.45	1.1
CCCCCCC1/C(=N/O)CCC1C(=O)OC (stereo not drawn)	-0.3	0.35
Cn1nc(C(F)(F)F)c(-c2ccccc2)c1NC(=O)CCC(=O)O	-0.6	-0.27
CSc1nsc(SC)c1NC(=O)OC1CCCCC1	-1.1	0.31
S=c1c2c(nc3nc[nH]n13)CCC2	-0.5	-5.7*
O=C(C1=C(O)c2ccccc2S(=O)(=O)N1)c1ccc(Cl)s1	0.05	-0.11
CC(/C=N/n1c(-c2cccnc2)n[nH]c1=S)=C\c1ccccc1	0.1	0.27
CCOC(=O)c1c[nH]c(=S)[nH]c1=O	0.55	-7*
CC(=O)Nc1ccc(C(=O)OCC(=O)N(C)C2CCCCC2)cc1	0.3	-0.5
Cc1cc2c(cc1C)NC(c1cccc(O)c1)C1=C(CC(C)(C)CC1=O)N2 (stereo not drawn)	·	-2.4
N#Cc1cc2c(nc1SCC(O)CS(=O)(=O)Cc1ccccc1)CCCC2 (stereo not drawn)	·	-0.42
COc1ccccc1C(=O)Nc1nc2ccccc2s1	0.65	24
CCCCn1c(=O)c(Cc2ccccc2)c(O)c2ccccc21	·	0.65
O=C(NCCc1ccccc1)/C(=C/c1cn(-c2ccccc2)nc1-c1ccc(Br)cc1)NC(=O)c1ccccc1	·	-0.53
Cc1nc(-c2nnc(SCC(=O)Nc3ccc(C(C)C)cc3)n2C)cs1	0.4	-0.3

More compounds follow:
Compound	AID504770	Ba CapD inh
CCC(CC)NC(=O)c1ccc2ncsc2c1	-0.35	·
CCN(C(=O)CSc1nnc(C)o1)c1cccc2ccccc12	-0.5	·
CC(C)(CN)N1CCOCC1	-0.6	·
Cc1cc(Br)cc(C)c1NC(=O)c1sc2ncn(CC(=O)N3CCCC(C)C3)c(=O)c2c1C (stereo not drawn)	·	0.055
CC(=O)NC(O)C(=O)c1ccco1 (stereo not drawn)	0.5	-0.47
Cc1ccc(CNC(=O)c2ccc(CS(=O)Cc3ccc(C)cc3)o2)cc1 (stereo not drawn)	-0.4	-0.2
CSC1=C(C#N)C(c2ccccc2)CC(=O)N1 (stereo not drawn)	-0.35	0.18
CC(=O)NC1C(Oc2ccccc2C)OC2COC(C)(C)OC2C1O (stereo not drawn)	-0.6	·
CCCCC(=O)NC1(C(F)(F)F)C(=O)N(Cc2ccco2)C(C)=C1C(=O)OC (stereo not drawn)	-0.2	0.48
O=C1CCO1	-0.65	0.11
COc1ccc(Cc2nc3ccccc3n2C)cc1	-1.9	-1.1
CC(=O)Nc1sc(C)c(C)c1C#N	-0.5	-0.075
Cc1cc2c(cc1C)CSC(c1ccccc1Cl)SC2	·	-0.2
Cc1cc(C)c(S(=O)(=O)N2CCCCC2C(=O)O)c(C)c1 (stereo not drawn)	-0.8	0.58
COc1ccc(S(=O)(=O)N(CC(=O)NCCSc2ccc(Cl)cc2)c2ccc(C)cc2)cc1OC	·	0.66
O=C(Nc1c2c(nn1-c1ccc(Cl)cc1)CS(=O)(=O)C2)c1ccc(S(=O)(=O)N2CCCC2)cc1	·	0.16
CCC(Cc1ccccc1)NS(=O)(=O)c1ccc2c(c1)CC(C)N2C(=O)C1CC1 (stereo not drawn)	2.5	-0.15
N#CCCn1cc(C(=O)Nc2nccs2)c(-c2cccs2)n1	2.1	-1.1
O=S(=O)(c1ccccc1OC(F)(F)F)N1CCN(c2c(Cl)cncc2Cl)CC1	0.95	0
CCCCCCCOC1OC(COC(C)=O)C(OC(C)=O)C(OC(C)=O)C1NC(C)=O (stereo not drawn)	·	-0.25

Single records, as listed above. Screens in order: AID504770	Ba CapD inh
`CCCCCCCOC1OC(COC(C)=O)C(OC(C)=O)C(OC(C)=O)C1NC(C)=O` (stereo not drawn) across the screens: ·	-0.25
`CC(=O)NC1C(Oc2ccccc2C)OC2COC(C)(C)OC2C1O` (stereo not drawn) across the screens: -0.6	·
`CC(=O)NC(O)C(=O)c1ccco1` (stereo not drawn) across the screens: 0.5	-0.47
`O=C1CCO1` across the screens: -0.65	0.11
`O=S(=O)(c1ccccc1OC(F)(F)F)N1CCN(c2c(Cl)cncc2Cl)CC1` across the screens: 0.95	0

Gathered by group, those above containing bromine
Compound	AID504770	Ba CapD inh
O=C(NCCc1ccccc1)/C(=C/c1cn(-c2ccccc2)nc1-c1ccc(Br)cc1)NC(=O)c1ccccc1	·	-0.53
Cc1cc(Br)cc(C)c1NC(=O)c1sc2ncn(CC(=O)N3CCCC(C)C3)c(=O)c2c1C (stereo not drawn)	·	0.055

Continuation:
Compound	AID504770	Ba CapD inh
O=C1CSC2=NC3=C(CCc4ccccc43)C(c3ccccc3)N12 (stereo not drawn)	-0.9	-0.85
Cc1c(C(=O)NCc2cccs2)oc2ccc3c(c12)C(=O)CC1(CCCC1)O3	-0.1	1.1
O=C(O)CCC(=O)Nc1ccc2c(c1)Cc1cc(NC(=O)CCC(=O)O)ccc1-2	0.8	0.02
COc1ccc(N2C(=O)CSC23C(=O)Nc2ccccc23)cc1 (stereo not drawn)	·	-1.2
CCS(=O)(=O)c1c(S(=O)(=O)CC)c2c3ccccc3ccn2c1C(=O)c1ccccc1	·	6
S=C(NCc1ccccc1)N1CCc2ccccc21	0.2	·
Cc1cc(=O)[nH]c(-c2ccccc2)n1	-0.85	-0.7
COc1ccccc1/C=C(\C#N)c1nc(-c2cc3cc(Br)ccc3oc2=O)cs1	·	0.18
COc1ccc(C(CC(N)=O)CC(=O)O)cc1 (stereo not drawn)	0	0.85
O=C1c2ccccc2C(=O)N1c1ccc(S(=O)(=O)N2CCOCC2)cc1	-0.5	·
O=C(Nc1ccc(S(=O)(=O)N2CCCCC2c2cccnc2)cc1)c1ccccc1I (stereo not drawn)	·	-0.2
Cc1nc2ccc(C(=O)NCC3COc4ccccc4O3)cc2nc1C (stereo not drawn)	-0.6	-1.1
COC(=O)C1c2ccccc2Oc2ccccc21	-0.85	0.33
Cc1cnc(NC(=O)COc2ccc3ccccc3c2)s1	-1.2	·
CCCc1cc2c(-c3ccccc3)cc(=O)oc2cc1O	-0.55	3.2
Cc1ccc(S(=O)(=O)Nc2ccc(-c3nc4ccccc4o3)cc2)cc1	-0.7	38
CC(C)COC(=O)C(C)Oc1ccc2c3c(c(=O)oc2c1)CCC3 (stereo not drawn)	-0.75	-1.4
COc1ccc(OC)c(/C=C2/SC(=S)N(CC(=O)O)C2=O)c1	·	-2.3
O=C(N/N=C1/SCC(=O)N1Cc1ccco1)c1ccccc1F	2.2	·
O=C(NCc1ccc2c(c1)OCO2)C1CCCN(c2nc3ccsc3c(=O)s2)C1 (stereo not drawn)	0.8	0.27

Later entries.
Compound	AID504770	Ba CapD inh
COC(CNC(=O)CN1C(=O)/C(=C\c2ccc(Cl)cc2)Oc2ccc(C(C)(C)C)cc21)OC	-0.35	0.28
CCOc1ccc(Cc2nc(C)c(CC(N)=O)c(=O)[nH]2)cc1	-0.5	·
CCCCC(Sc1ccc2nnc(-c3ccc(F)cc3)n2n1)C(=O)O (stereo not drawn)	-0.35	1.1
O=C1/C(=C/c2cccnc2)SC(=NCc2ccccc2)N1Cc1ccccc1	·	-1.5
O=C(O)c1ccc(Nc2ncnc3ccc(Br)cc23)cc1	-0.7	-1.9
c1csc(-c2nc(N3CCCCC3)no2)c1	-0.6	5.9
COc1ccc2sc(N)nc2c1	-0.45	·
CCCCC1(C)OC(=O)C(=Cc2ccc(SC)cc2)C(=O)O1 (stereo not drawn)	-1.1	0.21
COc1ccc(S(=O)(=O)N(CC(=O)Nc2ccc(S(=O)(=O)N3CCCCC3)cc2)c2ccc(C)cc2)cc1	·	-0.49
Oc1ccc(-c2csc3nc(-c4ccccc4)nn23)c(O)c1	2.2	-0.095
Cc1cc(C(C)(C)C)ccc1NC(=O)CC(C)(C)CC(=O)O	0.15	0.35
c1cncc(-c2ncc(-c3ccncc3)c(-c3cccnc3)n2)c1	·	-0.07
Cc1cccc(C(=O)NC(Cc2ccccc2)C(N)=O)c1 (stereo not drawn)	0.2	1.1
CC(C)OCC(O)CN (stereo not drawn)	1.9	·
O=C(Cc1ccc(F)cc1)Nc1cc(=O)[nH]c(=O)[nH]1	-0.25	·
CCn1c(=O)c(=O)[nH]c2cc(C(=O)NCc3cccs3)ccc21	0.5	·
Cc1ccc(-n2c(-c3ccccc3)cn3c4c(=O)n(C)c(=O)n(C)c4nc23)cc1Br	·	-0.24
CCOC(=O)c1[nH]c(C)c(CNc2ccccc2)c1C	-0.7	-0.005
O=C(NCc1cccnc1)c1ccc2c(c1)ncn2-c1ccc(OCc2ccccc2)cc1	·	0.68
COc1cccc(NC(=O)CSc2nc3ccsc3c(=O)n2Cc2ccccc2Cl)c1	-0.25	-0.06

(continued)
Compound	AID504770	Ba CapD inh
COCc1cc(=O)oc2cc(O)c(Cl)cc12	·	77
O=S(=O)(Cc1ccc(Cl)cc1)NCCN1CCOCC1	-1	0.095
CCOc1ccccc1NC(=O)c1ccc(Br)cc1	-0.1	1.3
O=C1OCCC1NC1=NCCC1 (stereo not drawn)	0.1	·
Cn1ncc2c(Nc3ccccc3)ncnc21	-0.2	-0.81
Cc1ccc2nc(Nc3ccccc3)cc(C)c2c1	-0.9	42
Cc1ccc(C)c(N2CCN(CCCNC(=O)CN3C(=O)CSc4ncccc43)CC2)c1	-0.65	0.43
CCCCOc1ccc(-c2[nH]nc3c2C2(C(=O)N(CC(=O)OC)c4ccccc42)C(C#N)=C(N)O3)cc1 (stereo not drawn)	·	-0.14
COc1ccc(OCC(=O)N2c3ccccc3Sc3ccc(C(F)(F)F)cc32)cc1	·	0.39
Cc1occc1C(=O)Nc1ccc(OCc2ccccc2)cc1	0.15	0.57
COCc1oc2ccc(NS(=O)(=O)c3ccc(Cl)cc3)cc2c1C(=O)OC	·	0.36
S=c1[nH]nc(NC2CC2)s1	2.2	·
N/C(CC(=O)Nc1cc(C(F)(F)F)ccc1Cl)=N\O	0.25	0.54
Oc1ccccc1C1=NCCNC(C(F)(F)C(F)F)=C1	0.55	-2.5
COc1cc(-c2ncnn2-c2sc3c(c2C#N)CCCCC3)cc(OC)c1OC	0.4	0.34
CCN(C(=O)Cc1noc2ccccc12)c1cc(C)ccc1C	0	-0.44
CCOC(=O)N1CCN(C(=O)c2cc3c(=O)n(CC)c4ccccc4c3s2)CC1	-0.8	21
O=C(OCc1cn2cc(Cl)ccc2n1)c1ccc(N2CCCC2=O)cc1	-0.15	·
CSc1cccc(N2C(=O)C=CC2=O)c1	-2.2*	0.18
Cc1oc(-c2ccc(Cl)cc2)cc1C(=O)N1CCC(O)(c2ccc(Cl)cc2)CC1	0	9.4

Later entries
Compound	AID504770	Ba CapD inh
Cc1nc(C)c(Oc2ccc(Cl)cc2Cl)c(=O)[nH]1	-0.75	9.2
O=C1Nc2ccccc2N(c2ccccc2)N1	-0.35	-1.1
CN1CCN(S(=O)(=O)c2cccc3nsnc23)CC1	0.1	·
CN1C2CCC1CC(=NO)C2	·	0.46&0.19
Cc1nc2ccc(O)cc2o1	2	0.07
ClC(Cl)(Cl)C1=Nc2ccccc2C(c2ccccc2)(c2ccccc2)O1	·	-0.3
O=C1NCCCC1c1n[nH]c(=S)n1-c1ccccc1Cl (stereo not drawn)	0.6	0.58
CCOc1cccc2c1OC(c1ccccc1Cl)N1N=C(c3cccnc3)CC21 (stereo not drawn)	·	-0.46
COc1ccccc1-c1nnc(SC)n1CCc1ccccc1	-0.6	·
FC(F)(F)c1cccc(Sc2ccc3nnc(Cl)n3n2)c1	0	-0.93
S=C(NCCCN1CCOCC1)N1CCOCC1	0	0.69
CCCNC(=O)c1cccc(COCC(F)(F)C(F)F)c1	-0.7	-0.24
CSc1nc2sc3c(c2c(=O)n1CC(C)C)CCC3	-0.3	0.88
C=CCOc1ccccc1/C=N/NC(=O)c1cc2ccccc2s1	·	2.7
Cc1cccc(C)c1NC(=O)Nc1cc2sccc2n1C	0	1.7
O=C(Nc1cccc2[nH]ccc12)c1cccc(C(F)(F)F)c1	-0.5	1.1
NC(=O)Cc1cn2ccccc2n1	-0.25	·
OC1(C(F)(F)F)CC(c2ccccc2)=NN1 (stereo not drawn)	·	0.17
COc1ccc(NC2CC(=O)N(C(C)C)C2=O)cc1 (stereo not drawn)	-0.65	-0.05
CN(C)n1cccc1/C=C(\C#N)S(=O)(=O)c1ccc(Cl)cc1	0.3	-0.06

Later entries.
Compound	AID504770	Ba CapD inh
COc1ccc(N(CC(O)Cn2c3ccccc3c3ccccc32)S(=O)(=O)c2ccc(C)cc2)cc1 (stereo not drawn)	·	2.4
O=C(c1ccccc1Cl)N1CCc2c([nH]c3ccccc23)C1c1ccc(Cl)cc1 (stereo not drawn)	·	0.35
CC1CCC/C(=N/NC(=O)Cn2nnc3ccccc32)C1 (stereo not drawn)	0.5	·
COc1ccc(COC(=O)C2=C(C)NC(=O)NC2c2ccccc2OCc2ccccc2)cc1 (stereo not drawn)	·	-0.77
CCCCN(C(=S)Nc1ccccc1CC)C1CCN(C(C)=O)CC1	-1.8	0.47

From PubChem BioAssay
